Assay outcomes (PubChem BioAssay)
FGF22 binding – FGF22 (human) thermal shift binding; recombinant FGF22 thermal shift, SYPRO orange fluorescence; percent of sucrose octasulfate shift, DMSO zero; Q9HCT0; 340,000 compounds, 1.5% hits; calls only at 9.99 µM;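 active means melting point raised past a set limit in the mean and every replicate; inconclusive means no clear call; three in four hits are not shown here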
ALR inh – inhibitors of human sulfhydryl oxidase ALR | P55789 | purified ALR, DTT oxidation, H2O2 HRP-luminol luminescence | inhibition, % (concentration not given with the values) | 290,000 compounds, 3.8% hits | AID 485317;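 active means mean and each replicate at 75% or more; inconclusive means only one of the two met; inactive means neither met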;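 further: stock transfer was 7.5 nL into about 7.5 µL; 0% = neutral wells and 100% = wells with inactivated enzyme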
E coli growth – blocks Escherichia coli growth | OD600, 23 h; active compounds read low | AID 1053175 | OD600 absorbance (test concentration not listed) | 330,000 compounds, 0.21% hits;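 active means OD600 absorbance below the run mean of sample wells minus 3.6 SD, in any replicate, cut at about 0.56 in these data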;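 further: stock transfer was 300 nL into about 60 µL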
MLL AF4-AF9 inh – inhibitors of human MLL-AF4/AF9 interaction; AlphaScreen, biotin-AF4 peptide binding to FLAG-AF9; inhibition, % at 10 µM; 350,000 compounds, 0.47% hits; AID 651704;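 active means every replicate reaching a set inhibition limit, whatever the replicate mean, cut at about 25% in these data; inconclusive means mean inhibition reaches that limit but some replicates miss it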;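 further: 0% = plate neutral control median and 100% = total signal loss; the record names both 10 and 1 µM as test concentration; the first replicate is given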
Target sequence (P42568 whole entry, looked up): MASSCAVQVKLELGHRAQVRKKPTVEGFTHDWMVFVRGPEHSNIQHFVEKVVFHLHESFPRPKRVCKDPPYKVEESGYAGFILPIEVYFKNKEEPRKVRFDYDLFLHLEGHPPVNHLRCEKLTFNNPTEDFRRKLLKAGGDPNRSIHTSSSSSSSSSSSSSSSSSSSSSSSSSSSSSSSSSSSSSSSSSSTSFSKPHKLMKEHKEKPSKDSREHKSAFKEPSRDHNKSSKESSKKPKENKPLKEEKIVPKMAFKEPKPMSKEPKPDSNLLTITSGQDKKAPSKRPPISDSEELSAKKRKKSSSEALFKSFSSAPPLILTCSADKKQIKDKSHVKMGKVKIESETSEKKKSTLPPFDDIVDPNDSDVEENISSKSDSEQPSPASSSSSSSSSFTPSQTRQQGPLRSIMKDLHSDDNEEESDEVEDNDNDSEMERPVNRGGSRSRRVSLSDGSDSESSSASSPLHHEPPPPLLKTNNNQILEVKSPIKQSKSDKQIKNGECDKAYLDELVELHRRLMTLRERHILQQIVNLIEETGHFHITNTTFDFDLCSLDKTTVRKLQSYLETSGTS
HNF4A DNA FP – change in binding of human HNF4 alpha to DNA; P41235; HNF4a-FITC DNA binding, fluorescence polarization, 1 h; activity change, % at 10 µM; 360,000 compounds, 0.3% hits; in the data active means activity change above about 30%, passing the limit was not always enough;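 further: controls were the assay level and a saturating level of protein; the project sought stronger binding though the title names inhibitors; some compounds called inactive have numbers as strong as hits; positive values seem to mean higher polarization but the record does not say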
Target sequence (P41235 whole entry, looked up): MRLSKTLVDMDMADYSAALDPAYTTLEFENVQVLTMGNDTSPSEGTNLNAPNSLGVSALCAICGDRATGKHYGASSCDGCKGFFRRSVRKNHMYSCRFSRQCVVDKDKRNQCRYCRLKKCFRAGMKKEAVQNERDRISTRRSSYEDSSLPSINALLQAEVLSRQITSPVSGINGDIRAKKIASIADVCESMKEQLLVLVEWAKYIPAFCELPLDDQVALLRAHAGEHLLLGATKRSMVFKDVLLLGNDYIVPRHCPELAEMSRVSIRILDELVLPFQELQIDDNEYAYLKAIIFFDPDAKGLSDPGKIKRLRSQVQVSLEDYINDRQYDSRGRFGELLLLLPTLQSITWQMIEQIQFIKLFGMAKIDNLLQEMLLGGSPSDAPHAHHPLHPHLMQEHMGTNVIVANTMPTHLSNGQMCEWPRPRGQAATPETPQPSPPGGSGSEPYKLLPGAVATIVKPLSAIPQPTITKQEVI
Vif A3G – HIV-1 Vif–A3G interaction blockers – biochemical, TR-FRET, GST-Vif 1-94, biotin-A3G peptide, dose response retest, primary screen (AID 1117319) | TR-FRET GST-Vif / biotin-A3G peptide binding; higher % means a stronger effect; test concentration not given here; strong numbers were not always called active | inhibition, %; hits with a dose series show IC50 in µM | 260,000 compounds, 0.57% hits;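 active means above the screen mean plus three standard deviations and confirmed in dose response; inconclusive means results disagree or hit not tested in dose response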;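 further: Vif residues 1-94 fused to GST binding biotinylated APOBEC3G peptide 110-148; 0% = full assay without inhibitor and 100% = GST in place of GST-Vif; retest series ran down from 100 µM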
Ecoli rRNA inh – inhibitors of bacterial rRNA selective over humanized ribosomes; GFP signal change (wild-type ribosome), % (test concentration not listed); 350,000 compounds, 1.6% hits; E. coli WT GFP vs humanized-ribosome RFP mutants, fluorescence, 24 h; active compounds read low; DMSO median 0, no signal -100;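 active means significant combined selectivity score with lowered wild-type GFP, culture density cut under 30%, mutant RFP and density less affected; inactive means any of these conditions unmet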; further: one replicate is shown; some compounds called inactive have numbers as strong as hits
Ecoli rRNA inh OD600 – recorded beside Ecoli rRNA inh, whose call it bears; OD600 change, %; measured here: OD600 growth;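 optical density of the mix in the first replicate; 0 = DMSO median and -100 = no signal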
Ecoli rRNA inh RFP – also measured in Ecoli rRNA inh; calls as there; RFP signal change, %; measured here: RFP humanized mutant strains;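 first replicate; 0 = DMSO median and -100 = no signal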
* marks the source's active call; other numbers are inactive results; i = inactive; ? = inconclusive; nt = no result given; + = active, no number. Some of the compounds tested, so the mix of outcomes need not match the whole.

canonical_smiles,FGF22 binding,ALR inh,E coli growth,MLL AF4-AF9 inh,HNF4A DNA FP,Vif A3G,Ecoli rRNA inh,Ecoli rRNA inh OD600,Ecoli rRNA inh RFP
CC(C)[C@H](NS(=O)(=O)/C=C/c1ccccc1)C(=O)OCC(=O)NC(N)=O,i,nt,0.69,-24,-4.7,nt,-2,1,4.4
COC(=O)C1=C(C)OC(N)=C(C#N)C1c1cc(C)sc1C (stereo not drawn),nt,3,0.72,nt,-2.5,-2%,nt,nt,nt
CC(C)c1ccc(CN2C(=O)c3ccccc3S2(=O)=O)cc1,i,-2,0.66,-0.8,5.0,0%,-33,-39,-11
Cc1nc(N2CCCCC2)c2ccsc2n1,nt,-3,0.68,nt,-0.7,14%,nt,nt,nt
Cc1ccc2c(c1)C1CN(C)CCC1N2S(=O)(=O)c1ccc(C(C)C)cc1 (stereo not drawn),+,nt,0.66,10,4.1,3%,nt,nt,nt
CSc1ccccc1C(=O)Nc1cc2c(cc1C(=O)O)OCCCO2,i,nt,0.64,2.7,-3.1,nt,3,-5,-1.2
CCC(=O)Nc1ccc(-c2nnc(SCC(=O)N3CCCCC3)n2C)cc1,nt,-13,0.65,nt,-3.6,11%,nt,nt,nt
Cn1cc(C(=O)N/N=C/c2cccc([N+](=O)[O-])c2)c2ccccc21,i,nt,nt,-2.2,1.0,-3%,9,3,-1.1
COC(=O)c1cn(NC(=O)C2CCCO2)c(=O)c2ccccc12 (stereo not drawn),nt,2,0.72,nt,1.9,-15%,nt,nt,nt
CCCCOC(=O)c1ccc(Nc2ncnc3nc[nH]c23)cc1,i,-9,0.75,6.5,1.3,-4%,6,8,-0.9
CCc1nnc(NC(=O)C2CCN(S(=O)(=O)c3ccc(C)cc3)CC2)s1,i,-1,0.67,-2.4,1.6,-4%,8,15,0.8
Cn1c(SCC#N)nnc1-c1ccc2c(c1)OCO2,nt,-26,0.71,nt,0.8,6%,nt,nt,nt
CCOC(=O)c1ccc(Nc2cc(C)nc(-c3ccccc3)n2)cc1,i,3,nt,-0.3,-2.1,nt,-3,-5,1.6
O=C(NCC1CCCO1)C1CCCN(S(=O)(=O)c2ccc(F)cc2)C1 (stereo not drawn),i,-3,0.66,-3.8,4.2,nt,6,17,0.9
N/C(COc1cc(Cl)cc(Cl)c1)=N\O,i,-20,nt,-0.2,-2.2,-3%,nt,nt,nt
O=C(NCCc1ccccn1)/C(=C/c1ccco1)NC(=O)c1ccccc1,i,nt,0.7,0.4,-0.8,-11%,15,4,3.9
O=S(=O)(c1ccc2c(c1)CCCN2)N1CCCC2CCCCC21 (stereo not drawn),i,16,0.69,-17,0.6,31%,-31,-40,-1.2
Cc1ccc(C(=O)CN2CCN(c3ccccn3)CC2)c(C)c1,i,nt,0.69,0.0,0.7,-4%,9,12,0.2
COc1ccc(CN2C[C@@H](CO)O[C@@H](n3cnc4c(NCCO)ncnc43)C2)cc1,i,nt,nt,5.0,-33,nt,5,11,1.7
C=CCC1(O)C(=O)N2C(=C1C(=O)OCC)c1ccc3ccccc3c1CC2(C)C (stereo not drawn),nt,0,0.66,nt,-2.5,4%,nt,nt,nt
COc1cc(OC)c(/C=N/n2c(C)nnc2C)c(OC)c1,nt,-5,nt,nt,-5.1,2%,nt,nt,nt
Cc1cc(C)cc(OCCCN2CCC(C(O)(c3ccccc3)c3ccccc3)CC2)c1,i,nt,nt,7.3,nt,nt,-50,-77,-14
COC(=O)CCc1c(C)c(C(=O)c2cc(OC)c(OC)c(OC)c2)c2ccccn12,i,-2,0.62,5.4,-2.0,-8%,-4,0,3.6
COc1cc(Cl)c(CN2CCC(CO)(CCOc3ccccc3)CC2)cc1OC,i,-6,0.67,2.2,0.0,nt,-4,-15,1.9
CCOC(=O)N1CCN(C(=O)c2cccc(F)c2)CC1,i,-3,0.69,-2.4,2.3,2%,5,4,-1.5
C[C@H]1CN([C@@H](C)CO)C(=O)c2cccc(NC(=O)Nc3ccccc3)c2O[C@@H]1CN(C)Cc1ccc(C(=O)O)cc1,i,nt,nt,-0.5,nt,nt,1,-5,-1.2
CCCOc1ccc(C(=O)CCNc2cccc(Cl)c2)cc1,i,-2,0.71,-9.1,-2.1,-4%,-6,5,-2.2
COc1ccc(CNC(=O)CN(C(=O)c2csnn2)c2cccc(C(C)=O)c2)cc1,i,-14,0.71,-9.8,-0.8,nt,-6,7,-3.1
COc1cccc(-c2ccc([C@H]3[C@H](CO)N4CCCCN(C(=O)c5ccc6c(c5)OCO6)C[C@@H]34)cc2)c1,i,nt,nt,2.3,nt,nt,-14,-59,-1.0
C[C@H](CO)N1C[C@H](C)[C@H](CN(C)S(=O)(=O)c2ccccc2)Oc2cc(-c3cccc(F)c3)ccc2S1(=O)=O,i,nt,nt,-1.2,nt,nt,2,3,1.8
C[C@@H]1CN([C@@H](C)CO)C(=O)c2cc(NS(=O)(=O)c3ccccc3)ccc2O[C@@H](C)CCCCO[C@@H]1CN(C)C(=O)Nc1ccc(C(F)(F)F)cc1,i,nt,nt,-1.8,nt,nt,2,1,0.6
CCOc1cc(C2C3=C(CC(C)(C)CC3=O)N(CCCOC)C3=C2C(=O)CC(C)(C)C3)ccc1O,i,5,0.67,-1.7,-2.0,10%,4,9,1.9
Cc1nnc(NC(=O)CSc2nnc3scc(-c4ccc(C)c(C)c4)n23)s1,nt,-9,0.64,nt,-0.3,1%,nt,nt,nt
O=S(=O)(Cc1ccccc1)c1ccccc1-c1nnc(-c2ccccc2)o1,nt,-19,0.76,nt,1.8,-4%,nt,nt,nt
C[C@H](CO)N1C[C@H](C)[C@H](CN(C)S(=O)(=O)c2ccc(F)cc2)Oc2ccc(NC(=O)c3ccncc3)cc2C1=O,+,nt,nt,-4.1,nt,nt,-2,2,-2.8
O=C(C[C@H]1CC[C@@H]2[C@H](COC[C@H](O)CN2Cc2ccc(Cl)cc2)O1)NCCc1ccccc1,i,nt,nt,1.1,nt,nt,-3,-32,3.0
CCCc1cc(=O)[nH]c(SCC(=O)Nc2ccc(OC)c(S(=O)(=O)N3CCCCC3)c2)n1,i,?,0.71,-1.0,2.1,nt,-22*,-3.1*,4.2*
COc1cccc(/C(O)=C2\C(=O)C(=O)N(c3ccccn3)C2c2ccccc2OC)c1 (stereo not drawn),nt,3,0.74,nt,5.9,-1%,nt,nt,nt
CN(C)CCNC(=O)c1cccc(-c2cnc3c(NC=O)cc(/C=C/c4ccccc4)cn23)c1,i,nt,nt,34*,6.8,nt,8,14,8.8
CCn1c(=O)c2c(O)cc(=O)oc2c2ccccc21,nt,-3,0.71,nt,1.1,6%,nt,nt,nt
O=[N+]([O-])c1nn(-c2ccc3c(c2)OCCO3)n(O)c1=NCc1ccc(F)cc1Cl,i,-3,0.69,0.3,3.9,10%,8,-1,0.1
CC1CCN(C(=O)c2ccc(CS(=O)(=O)Cc3ccccc3)cc2)CC1,i,0,0.66,-1.4,1.2,1%,4,-5,-0.4
COc1ccc(NC(=O)CSc2nnc(-c3ccccn3)n2N)cc1Cl,nt,-16,0.73,nt,0.1,12%,nt,nt,nt
Cc1ccccc1OCC(=O)N/N=C/c1ccc(Sc2nc3ccccc3s2)o1,nt,-5,nt,nt,0.1,-7%,nt,nt,nt
C[C@@H]1CN([C@H](C)CO)C(=O)c2cccc(NS(C)(=O)=O)c2O[C@@H]1CN(C)C(=O)Nc1ccc(F)cc1,i,nt,nt,-2.1,nt,nt,-1,5,-0.9
C[C@@H]1CCCCO[C@H](CN(C)C(=O)c2ccncc2)[C@@H](C)CN([C@@H](C)CO)C(=O)c2cc(NC(=O)Cc3ccccc3)ccc2O1,i,nt,nt,1.6,nt,nt,-3,0,0.3
CN(CC(=O)Nc1ccc(Cl)c(Cl)c1)C1CCCCC1,i,-7,0.62,-0.8,3.7,nt,-19,-12,-0.1
CO[C@@H]1CN(C)C(=O)c2cc(NC(C)=O)ccc2OC[C@H](C)N(Cc2ccncc2)C[C@H]1C,i,nt,nt,-2.6,nt,nt,-2,7,4.2

Full records, quoted from the list. Order of screens: FGF22 binding	ALR inh	E coli growth	MLL AF4-AF9 inh	HNF4A DNA FP	Vif A3G	Ecoli rRNA inh	Ecoli rRNA inh OD600	Ecoli rRNA inh RFP
`C[C@@H]1CCCCO[C@H](CN(C)C(=O)c2ccncc2)[C@@H](C)CN([C@@H](C)CO)C(=O)c2cc(NC(=O)Cc3ccccc3)ccc2O1` as listed: i	nt	nt	1.6	nt	nt	-3	0	0.3
`CSc1ccccc1C(=O)Nc1cc2c(cc1C(=O)O)OCCCO2` as listed: i	nt	0.64	2.7	-3.1	nt	3	-5	-1.2

(list continues)
canonical_smiles,FGF22 binding,ALR inh,E coli growth,MLL AF4-AF9 inh,HNF4A DNA FP,Vif A3G,Ecoli rRNA inh,Ecoli rRNA inh OD600,Ecoli rRNA inh RFP
COc1ccc(CC(=O)Nc2cccc3ncccc23)cc1OC,i,-10,0.68,-0.4,-1.6,-4%,8,3,0.8
C[C@@H]1CCCCO[C@@H](CN(C)C(=O)c2ccccc2)[C@H](C)CN([C@H](C)CO)C(=O)c2cc(NS(C)(=O)=O)ccc2O1,i,nt,nt,-6.0,nt,nt,-1,3,-0.6
CC(C)n1c(NCc2c[nH]c3ccccc23)nc2ccccc21,nt,98*,0.71,nt,2.8,15%,nt,nt,nt
O=C(Nc1cccc(S(=O)(=O)NC2=NCCC2)c1)C1CC(=O)N(c2ccc3c(c2)OCCO3)C1 (stereo not drawn),i,1,0.69,-1.0,2.8,1%,23,12,-0.2
O=C1/C(=C\c2cccnc2)CCc2ccccc21,nt,-24,0.68,nt,0.9,16%,nt,nt,nt
CCCNC(=O)C[C@H]1C[C@H]2c3cc(NS(=O)(=O)c4ccc(F)cc4)ccc3O[C@H]2[C@@H](CO)O1,i,nt,nt,-1.0,nt,nt,-6,-3,0.2
CC(C)NC(=O)Nc1ccc2c(c1)CC(=O)N([C@H](C)CO)C[C@H](C)[C@H](CN(C)Cc1ccc3c(c1)OCO3)O2,i,nt,nt,-0.7,nt,nt,1,15,0.1
CCOC(=O)C1=C(C)C(c2ccccc2O)NC(=O)N1 (stereo not drawn),nt,1,0.68,nt,5.8,19%,nt,nt,nt
COc1ccc(NC(=O)Nc2ccc3c(c2)C(=O)N([C@H](C)CO)C[C@@H](C)[C@@H](CN(C)Cc2ccc(C(F)(F)F)cc2)OCCCC[C@@H](C)O3)cc1,i,nt,nt,-1.5,nt,nt,-1,8,7.3
O=C(CNC(=O)c1cccs1)NCCN1CCN(c2ccccc2F)CC1,i,2,0.62,-3.9,-0.4,-3%,16,9,3.1
